Mtb growth: M. tuberculosis H37Rv growth inhibitors, H37Rv strain (AID 1626) | one-dose inhibition, % at 10 µM; IC50 in µM for titrated hits | 220,000 compounds, 0.95% hits | M. tuberculosis H37Rv growth inhibition; higher % means a stronger effect;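 active = confirmed in a dose series; inconclusive = inhibition above 80% but not taken into the dose series; inactive = below 80% or under 30% at every dose of the series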;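 also: bacteria incubated seven days before Alamar blue readout; 0% = bacteria only wells and 100% = bacteria with antibiotic wells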
Mtb betalactam: beta-lactam sensitization of Mtb H37Rv. AID 434955. M. tuberculosis H37Rv growth with meropenem, percent inhibition; hits of this screen are not shown here. 330,000 compounds, 0.27% hits. inhibition, % at 25 µM;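 active = about 74% or more and at least 40 points above the plate without the antibiotic, then above 30% in a dose series; inconclusive = first-round hits that could not be retested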;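 also: growth measured after seven days incubation then overnight dye step; 0% = bacteria only wells and 100% = bacteria with antibiotic; twin plates without the antibiotic show which effects depend on it; some results filed as inactive read as strong as hits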
YopH PTP inh: inhibitors of Yersinia enterocolitica YopH tyrosine phosphatase; 140,000 compounds, 0.16% hits; fluorescence Ex485/Em525; inhibition, %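 (about 10 µM by stock and volumes)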;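 active = inhibition of 50% or more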;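 also: controls were vehicle for no effect and minimum signal wells for full effect; inactives centre near -20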
RecA splice inh: inhibitors of M. tuberculosis RecA intein splicing. P9WHJ3. cell-free RecA intein splicing, fluorescence. inhibition, %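 (about 9 µM by stock and volumes)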. 290,000 compounds, 0.75% hits; in the data active = inhibition above about 30%; inconclusive = no clear call, values can overlap the other calls;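 also: 0% = vehicle wells and 100% = reference inhibitor control wells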
Target sequence (P9WHJ3 whole entry, looked up, canonical isoform): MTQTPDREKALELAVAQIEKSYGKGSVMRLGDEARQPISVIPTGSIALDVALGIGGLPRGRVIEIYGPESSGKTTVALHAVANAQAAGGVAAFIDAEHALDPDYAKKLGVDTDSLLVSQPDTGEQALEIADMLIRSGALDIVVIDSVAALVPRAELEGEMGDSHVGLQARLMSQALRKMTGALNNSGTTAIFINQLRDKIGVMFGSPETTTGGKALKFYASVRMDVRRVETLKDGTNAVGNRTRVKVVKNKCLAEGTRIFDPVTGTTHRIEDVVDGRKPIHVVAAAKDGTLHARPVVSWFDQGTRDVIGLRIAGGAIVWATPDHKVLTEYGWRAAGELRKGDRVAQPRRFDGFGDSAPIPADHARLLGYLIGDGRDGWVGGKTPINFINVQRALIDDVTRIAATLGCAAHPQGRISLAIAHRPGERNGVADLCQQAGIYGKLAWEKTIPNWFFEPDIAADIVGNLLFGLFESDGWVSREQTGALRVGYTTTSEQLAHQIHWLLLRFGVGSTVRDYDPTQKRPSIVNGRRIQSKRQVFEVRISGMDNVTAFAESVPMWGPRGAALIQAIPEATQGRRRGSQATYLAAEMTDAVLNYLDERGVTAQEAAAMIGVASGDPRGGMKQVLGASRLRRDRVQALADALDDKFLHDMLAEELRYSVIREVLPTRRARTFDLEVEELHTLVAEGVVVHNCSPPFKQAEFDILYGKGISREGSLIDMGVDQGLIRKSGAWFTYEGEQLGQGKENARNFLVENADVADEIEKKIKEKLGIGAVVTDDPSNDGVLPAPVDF
Arbovirus anti: antivirals against arbovirus infection; inhibition, % at 10 µM; 200,000 compounds, 0.37% hits; arbovirus infection cell-based antiviral screen;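 active = inhibition from about 30%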;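 also: bluetongue infection of BSR cells; cell survival read as ATP light after 72 h; 0% = infected wells without compound and 100% = uninfected wells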
Arbovirus anti repeat: further read-out of Arbovirus anti, marked with its call; inhibition, %; measured here: 10K subset replicate screen; many hits read low in the repeat;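 first of two repeat runs on a subset; 0% = infected and 100% = uninfected wells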
Starred values were filed as active, the others as inactive; ? = inconclusive; . = no result given; & = joins results of further samples.

SMILES	Mtb growth	Mtb betalactam	YopH PTP inh	RecA splice inh	Arbovirus anti	others
CCOP(=O)(c1ccccc1Cl)C1(O)CCCCC1 (centres undefined)	7%	4	-35	-4.3	0
CSCCC(NC(=O)c1ccco1)C(=O)N(C)CC(=O)Nc1c(Cl)cccc1Cl (centres undefined)	.	-4	.	-2.2	.
CN(C)N1C(N)=C(C#N)C(c2ccccc2)C2=C1CCCC2=O (centres undefined)	-3%	5	.	-2.3	7
CC1=CCC2C(=O)N(c3ccc(C(=O)N4CCCCCC4)cc3)C(=O)C2C1 (centres undefined)	0%	0	-19	7.3	4
CC(=O)N1CCc2cc(S(=O)(=O)NCc3ccc(C)cc3)ccc21	.	-15	.	0.4	.
COc1ccc2cc(C(=O)C3CCCN(C(=O)c4cc5nc(C)cc(C)n5n4)C3)ccc2c1 (centres undefined)	0%	-7	.	-1.2	1
COc1ccc(CCNC(=O)CS(=O)(=O)c2cn(CC(=O)N3CCOCC3)c3ccccc23)cc1OC	3%	-6	.	-1.7	5
COC(=O)c1sc(-c2ccc(C(C)(C)C)cc2)cc1NC(=O)/C=C/C(=O)O	11%	86	.	88*	.
Cc1c(NS(=O)(=O)c2ccc3c(c2)OCCO3)cccc1-c1nc2cccnc2s1	6%	-14	-29	8.3	-9
Cn1c(=O)c(-c2cc(Br)ccc2N)nc2ccccc21	-15%	1	0	2.7	15
O=C(NCCc1cn2ccccc2n1)c1ccccc1F	10%	-19	-39	0.7	3
COc1ccc(NC(=O)CN(C)Cc2cccs2)cc1Cl	.	-3	.	0.3	.
O=C(NCCOC(=O)c1ccncc1)c1ccccc1	3%	-14	-31	.	12	Arbovirus anti repeat=0
Cc1ccc(S(=O)(=O)N2CCc3ccccc3C2)cc1C	.	-1	.	-1.4	.
CCc1nc(SCC(=O)N2CCOCC2)c2c(=O)n(C)c(=O)n(C)c2n1	5%	-6	-52	1.5	4

5 structures already listed, arranged by molecular weight, ascending.
SMILES	Mtb growth	Mtb betalactam	YopH PTP inh	RecA splice inh	Arbovirus anti	others
Cc1ccc(S(=O)(=O)N2CCc3ccccc3C2)cc1C	.	-1	.	-1.4	.
CN(C)N1C(N)=C(C#N)C(c2ccccc2)C2=C1CCCC2=O (centres undefined)	-3%	5	.	-2.3	7
CCc1nc(SCC(=O)N2CCOCC2)c2c(=O)n(C)c(=O)n(C)c2n1	5%	-6	-52	1.5	4
COC(=O)c1sc(-c2ccc(C(C)(C)C)cc2)cc1NC(=O)/C=C/C(=O)O	11%	86	.	88*	.
CSCCC(NC(=O)c1ccco1)C(=O)N(C)CC(=O)Nc1c(Cl)cccc1Cl (centres undefined)	.	-4	.	-2.2	.

(list continues)
SMILES	Mtb growth	Mtb betalactam	YopH PTP inh	RecA splice inh	Arbovirus anti	others
COc1ccc(CC(=O)N2CCN(c3cccc(Cl)c3)CC2)cc1OC	.	4	.	-0.4	.
O=C(C(=O)N1CCOCC1)c1cn(Cc2ccccc2Cl)c2ccccc12	0%	1	.	-0.3	8
CC(C(=O)O)C1SC(=O)NC1=O (centres undefined)	-10%	-6	-13	-1.4	4
Cc1ccc(OCCNC(=O)c2cncc(Br)c2)cc1C	-7%	-13	-34	-0.3	-5
CC(=O)[C@H]1[C@@H]2C(=O)N(c3cccc(Cl)c3)C(=O)[C@@H]2[C@H]2c3ccccc3C=CN21	3%	-4	67*	-12	-1
O=C1c2ccccc2C(O)N1c1ccc(Cl)cc1 (centres undefined)	0%	4	-38	-0.1	29	Arbovirus anti repeat=16
COCCOC(=O)C1=C(C)Nc2nc(C)nn2C1c1ccccc1 (centres undefined)	-3%	4	-2	-4.3	2
CS/C(=C\[N+](=O)[O-])Nc1ccc(OC(F)(F)F)cc1	10%	16	.	57*	6
C=CC1C(N2CCOCC2)C(C)(C)S1(=O)=O (centres undefined)	-10%	-10	-11	0.7	1	Arbovirus anti repeat=-2
Cc1ccccc1OCCOc1ccc([N+](=O)[O-])cc1/C=N/n1cnnc1	-2%	-4	.	1.7	-6
N#CC1=C(N)N(c2ccc(Br)cc2)C2=C(C(=O)CCC2)C1c1cccnc1 (centres undefined)	.	-2	-12	7.5	22
O[C@@H](CNC[C@H](O)c1ccccc1)c1ccccc1	-9%	1	-40	0.3	17
Cc1nn(-c2ccccc2)c(C)c1/C=N/NC(=O)c1cc(C2CC2)[nH]n1	-26%	-6	-36	0.8	0
CCOC(=O)c1sc(NC(=S)NC(=O)c2ccccc2)c(C(=O)OCC)c1C	5%	7	-26	-1.3	-10
COc1ccc(NC2CCCN(C(=O)c3cc(C)nc4cc(F)ccc34)C2)cc1 (centres undefined)	.	1	.	0.2	.
CCOc1ccc(C(=O)Nc2ccc(NC(=S)NC(=O)CC)cc2)cc1Cl	56%	90	-15	0.4	2
Cc1n[nH]c(C)c1S(=O)(=O)N1CCCC(C(=O)NCc2ccccc2Cl)C1 (centres undefined)	0%	-2	-29	-3.0	2
Nc1nonc1-c1nc2ccccc2n1CC(=O)NC1CCCC1	1%	-4	-37	-0.1	7
Cc1cc(C(=O)NNC(=O)/C=C/c2ccc(F)cc2)c(C)o1	.	-13	.	4.1	.
CN1CCN(C(=O)/C=C/c2ccc(Cl)cc2)CC1	2%	-4	.	-2.0	0
CN(C(=O)c1ccccc1)c1nc2ccccc2s1	9%	18	-31	0.3	0
C=CCC(NCc1ccccc1)c1ccc(OC)cc1 (centres undefined)	.	2	.	-1.0	.
Cc1cc(C(=O)CSc2nnnn2C)c(C)n1CCc1ccc(Cl)cc1	-4%	25	-36	.	20
Oc1[nH]c2ccccc2c1N=Nc1nncc2ccccc12	1%	7	.	1.3	.
CCCCN(C(=O)c1cc(S(=O)(=O)N2CCOCC2)ccc1Cl)c1c(N)n(CC(C)C)c(=O)[nH]c1=O	.	-4	.	-1.2	.
COc1ccc(/C=N/NC(=S)Nc2ccccc2[N+](=O)[O-])cc1O	0%	-5	4	14	10
COc1cc(NS(=O)(=O)c2ccc(N/C=C(\C#N)c3nc4ccccc4o3)cc2)nc(OC)n1	4%	-8	-19	-0.4	-3
COc1ccc(/C=C/C(=O)NC(=S)Nc2ccc(C(=O)O)cc2)cc1	11%	9	-2	-1.4	9
O=S(=O)(O)c1ccc(N=Nc2ccccc2)cc1	-10%	-5	.	-0.2	.
COc1cccc(/C=C2/NC(=O)N(CC(=O)Nc3ccc(C)cc3)C2=O)c1OCc1cccc(C(=O)O)c1	.	-4	.	-2.3	.

The closing 5 records of the part above come first, to join the parts.
SMILES	Mtb growth	Mtb betalactam	YopH PTP inh	RecA splice inh	Arbovirus anti	others
COc1ccc(/C=N/NC(=S)Nc2ccccc2[N+](=O)[O-])cc1O	0%	-5	4	14	10
COc1cc(NS(=O)(=O)c2ccc(N/C=C(\C#N)c3nc4ccccc4o3)cc2)nc(OC)n1	4%	-8	-19	-0.4	-3
COc1ccc(/C=C/C(=O)NC(=S)Nc2ccc(C(=O)O)cc2)cc1	11%	9	-2	-1.4	9
O=S(=O)(O)c1ccc(N=Nc2ccccc2)cc1	-10%	-5	.	-0.2	.
COc1cccc(/C=C2/NC(=O)N(CC(=O)Nc3ccc(C)cc3)C2=O)c1OCc1cccc(C(=O)O)c1	.	-4	.	-2.3	.
COc1ccc(C(C#N)N2CCCCC2)cc1OC (centres undefined)	0%	-7	-3	-0.6	0
Cc1ccc2nc(SCC(=O)Nc3nonc3N)[nH]c2c1	4%	2	.	-4.1	15
CCN(CC(=O)NCc1ccc(Cl)cc1)C(=O)C1CCN(S(=O)(=O)c2ccc(OC)c(OC)c2)CC1	.	35	.	0.0	.
O=[N+]([O-])c1ccccc1Oc1ccc(C(F)(F)F)cn1	8%	1	.	1.5	1
CCOC(=O)c1ccc(NC(c2ccc(N(C)C)cc2)P(=O)(OC(C)C)OC(C)C)cc1 (centres undefined)	?	5	.	-0.7	-12
Cc1ccc(C2NS(=O)(=O)N=C2N)cc1 (centres undefined)	5%	3	9	2.3	3
O=C(Nc1cc(S(=O)(=O)N2CCCCC2)ccc1Oc1ccccc1)C1=COCCO1	.	-7	.	0.9	.
O=C(Nc1ccccc1)N1CCN(Cc2ccccc2)CC1	-10%	-1	-16	-0.9	5
CO/N=C/c1ccc(N2CCN(C(=O)c3cccc(C(F)(F)F)c3)CC2)c([N+](=O)[O-])c1	0%	90	-34	8.5	0
Nc1c(N(CCC2=CCCCC2)C(=O)Cc2ccc(F)cc2)c(=O)[nH]c(=O)n1Cc1ccccc1	.	1	.	0.0	.
COc1ccc(C2=NN(C(=O)c3ccc(Cl)c([N+](=O)[O-])c3)C(c3ccccc3)C2)cc1 (centres undefined)	3%	4	-5	1.3	-13
Cc1cc(C(=O)Nc2ccc3c(c2)OCCO3)nn1C(C)(C)C	3%	88	.	1.1	.
CN(c1nnc(N)s1)C1CCCCC1	.	9	-17	-13	-5	Arbovirus anti repeat=-2
O=C(CCCCCCCCN1C(=O)c2ccccc2C1=O)N1CCOCC1	-7%	-8	.	-0.4	.
CC1CCN(CC(O)COCCOc2ccc(Br)cc2)CC1 (centres undefined)	-7%	-1	-22	-4.6	-18
Cn1c(N)c(Br)c(-c2ccc(F)cc2)c(C#N)c1=O	3%	-14	.	-1.8	6
COc1cc(C(=O)N/N=C/c2ccc(OC(=O)c3ccccc3)c(OC)c2)ccc1O	.	15	.	-0.9	.
CC/C(C)=N/N1C(=O)c2ccccc2NC1(C)CC (centres undefined)	-3%	-8	.	-3.7	1
COCc1c(C(=O)NC(C)c2ccc(S(N)(=O)=O)cc2)oc2ccccc12 (centres undefined)	.	1	.	-5.8	.
COc1ccc(OC)c(/C=C/C(=O)N(C)CC(=O)Nc2ccc(C)cc2)c1	-9%	4	-30	-34	-2
COc1ccc(C(=O)Nc2ccc(Cc3ccncc3)cc2)cc1Br	3%	-7	.	-0.4	3
CCCCn1c(N)c(N(CCC(C)C)C(=O)c2cccc(N3C(=O)c4ccccc4C3=O)c2)c(=O)[nH]c1=O	.	-19	.	-1.1	.
Cc1cc(C(=O)OCC(=O)Nc2nccs2)c2ccccc2n1	.	-4	.	-2.1	.
NC(=O)N1c2ccccc2C=Cc2ccccc21	-7%	5&-4	-32	0.2	2
COc1cc(C(=O)OCC(=O)N2CCN(C(C)=O)CC2)ccc1OCC(C)C	.	-9	.	0.8	.
Cc1csc(NC(=O)c2cc[n+]([O-])cc2)n1	1%	-7	.	1.4	0
COc1ccc2c(c1)C(=O)N(CCc1ccc(S(=O)(=O)NC(=O)NC3CCCCC3)cc1)C(=O)C2(C)C	.	1	.	4.7	.
COc1ccc(OC)c(NC(=O)CCN2CC(C)CC(C)C2)c1 (centres undefined)	.	-7	.	-4.0	.
CCCC[n+]1c2ccccc2cc2ccccc21	.	-6	.	-158	.
COC(=O)C1=C(C(=O)OC)[C@@H]2N(Cc3ccccc3)c3ccccc3[C@@]23C[C@@H](C(=O)OC)N(C(=O)NC2CCCCC2)C3=N1	-2%	-2	.	-3.6	.

Random excerpt: two entries already listed
SMILES	Mtb growth	Mtb betalactam	YopH PTP inh	RecA splice inh	Arbovirus anti	others
CN(c1nnc(N)s1)C1CCCCC1	.	9	-17	-13	-5	Arbovirus anti repeat=-2
COCc1c(C(=O)NC(C)c2ccc(S(N)(=O)=O)cc2)oc2ccccc12 (centres undefined)	.	1	.	-5.8	.

Going on with the list.
SMILES	Mtb growth	Mtb betalactam	YopH PTP inh	RecA splice inh	Arbovirus anti	others
CCSCCOC(=O)C1=C(C)N(C)C(=O)NC1c1cc(OC)ccc1OC (centres undefined)	-2%	-5	-20	1.9	1	Arbovirus anti repeat=3
CCOc1ccc(S(=O)(=O)Nc2ccccc2C(=O)Nc2ccccc2N2CCOCC2)cc1	-3%	17	3	-3.4	-4
CCOC(=O)C1(Cc2ccccc2)CCN(Cc2cc(OC)c3c(c2)OCO3)CC1	-1%	-2	.	2.3	8
O=C(N/N=C/c1ccccc1C(=O)O)c1ccncc1	.	98	.	-1.2	.
O=C(CSc1ccc2nnc(-c3ccccc3)n2n1)NCc1ccc2c(c1)OCO2	.	5	-59	-1.9	8
COc1ccc(-n2ncc3c(NC(C)C)ncnc32)cc1	8%	14	-20	.	-3
O=C(Nc1nccs1)c1cccc(S(=O)(=O)N2CCCCC2)c1	0%	?	0	4.3	10
COc1ccccc1NC(=O)CCn1c(=O)c2cccn2c2ccccc21	.	2	.	0.2	.
CCN1CCN(c2ncnc3scc(-c4ccc(C)c(C)c4)c23)CC1	.	-5	.	0.3	.
COP(=O)(OC)c1nc(-c2cccc3ccccc23)oc1NCCc1ccccc1	5%	5	-24	-4.1	-4

Filtered by structure, those above with a tert-butyl group.
SMILES	Mtb growth	Mtb betalactam	YopH PTP inh	RecA splice inh	Arbovirus anti	others
COC(=O)c1sc(-c2ccc(C(C)(C)C)cc2)cc1NC(=O)/C=C/C(=O)O	11%	86	.	88*	.
Cc1cc(C(=O)Nc2ccc3c(c2)OCCO3)nn1C(C)(C)C	3%	88	.	1.1	.

Bioassay records from PubChem BioAssay.

Some of the compounds tested. The share of hits here may be higher or lower than overall.
